AID504770: growth inhibition of E. coli YBA685, primary screen, V. cholerae RctB inhibitors. E. coli YBA685 rctB-dependent plasmid, OD600 growth, 3 h; hits give low values. z-score (test concentration not listed). 130,000 tested, 0.27% active;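 active = z-score under -2 on both plates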;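 note: wells of about 30 µL received 100 nL stock; score is relative to mean and SD of the test wells; the first replicate is given; strong numbers were not always called active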
Ba CapD inh: Bacillus anthracis CapD inhibitors, primary screen, biochemical, fluorescence intensity. CapD gamma-glutamyltranspeptidase (Bacillus anthracis Ames Ancestor). purified CapD enzyme, fluorescence intensity read-out; hits give low values; some hits fall short of the stated cut. z-score (no concentration beside the values). 140,000 tested, 0.23% active. AID 492967, 2010;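 active = z-score under -4 in either of two replicates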;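 note: stock transfer was 100 nL into about 40 µL; score is relative to mean and spread of the plate; one replicate is shown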
* = called active by the depositor; nt = not tested or not shown; & = joins results of further samples.

Every second line gives: AID504770	Ba CapD inh
COc1cc(/C=N/NC(=O)COc2ncn(-c3ccccc3)n2)ccc1OC(C)=O
    nt	-0.52
N#Cc1ccc(-c2cccnc2)[nH]c1=O
    1.7	77
Cc1ccc(-n2cc3cnnc(-c4ccccc4)c3n2)cc1
    -0.8	nt
Cc1ccc(S(=O)(=O)/C(C#N)=C\c2cn(-c3ccccc3)nc2-c2cc3ccccc3o2)cc1
    0.05	-0.015
O=C(CCNS(=O)(=O)c1ccc(Cl)cc1)N1CCN(c2ccccn2)CC1
    -0.45	nt
Cc1cc(Cl)c2cc(O)ccc2n1
    -0.65	2
O=C(Oc1cccc2[nH]ccc12)c1c(F)cccc1F
    -1.2	-0.74
O=C(c1ccc(S(=O)(=O)Nc2ccc3c(c2)OCCO3)s1)N1CCCC1
    -1.6	0.62
O=C(NCc1ccccc1CN1CCCC1)c1cc(=O)[nH]c2ccccc12
    -0.5	nt
COC(=O)c1nnc(Nc2ccc(Oc3ccccc3)cc2)c2ccccc12
    0	-0.32
CC(OC(=O)Cc1c[nH]c2ccccc12)C(=O)NC1CCCC1 (stereo not drawn)
    0.85	nt
O=C(CNC(=O)c1cccnc1)NCC1CCCCC1
    nt	-0.59
O=C(c1cccc([N+](=O)[O-])c1)N1N=C2CCCCC2C1(O)C(F)(F)F (stereo not drawn)
    nt	-0.64
COc1ccc(Cc2nnc(C(=O)NCc3ccccc3)o2)cc1OC
    -0.75	-0.23
NS(=O)(=O)c1ccc(N2C(=O)/C(=C\C=C\c3ccccc3)SC2=S)cc1
    -0.65	-0.67
COC(=O)c1c(NC(=O)Cn2nc([N+](=O)[O-])c(Br)c2C)sc2c1CCC(C(C)(C)C)C2 (stereo not drawn)
    nt	-1.1
Oc1oc(-c2ccccc2)cc1C=Nc1ccccc1
    -0.2&-0.35	-0.28
COC(=O)/C=c1/s/c(=C(/C#N)C(N)=O)n(-c2ccccc2)c1=O
    0.6	nt
CC(=O)NC(Cc1ccccc1)C(=O)NN1C(=O)c2c(C(C)C)nc3ccc(Cl)cc3c2C1=O (stereo not drawn)
    nt	-0.12
OC(c1ccco1)c1nccc2ccccc12 (stereo not drawn)
    -0.9	nt

Structures above that have two or more sulfur atoms:
Every second line gives: AID504770	Ba CapD inh
O=C(c1ccc(S(=O)(=O)Nc2ccc3c(c2)OCCO3)s1)N1CCCC1
    -1.6	0.62
NS(=O)(=O)c1ccc(N2C(=O)/C(=C\C=C\c3ccccc3)SC2=S)cc1
    -0.65	-0.67

The list goes on.
Every second line gives: AID504770	Ba CapD inh
CC1CCc2c(sc3nc(-c4ccccc4Cl)oc(=O)c23)C1 (stereo not drawn)
    nt	-0.17
Cc1ccc(C(=O)Nc2cc3c(oc2=O)CC(C)(C)CC3=O)cc1
    -0.9	-0.44
O=C(Nc1nsc(-c2ccccc2)n1)c1ccc(F)cc1
    -0.25	0.27
COC(=O)c1c(C)oc2ccc(N(C(=O)c3ccncc3)S(=O)(=O)c3ccc(Cl)cc3)cc12
    nt	-0.62
CC(=O)Oc1ccccc1C(=O)N1CCc2ccccc21
    0.4	-0.03
Cc1cc(C)c2c(c1)-c1c(ssc1=S)C(C)(C)N2C(=O)CN1C(=O)c2ccccc2C1=O
    nt	0.68
COCCNc1ncc(C(=O)OC)c2ccccc12
    -0.35	69
O=C(c1ccco1)N1N=C(c2c(-c3ccccc3)c3cc(Br)ccc3[nH]c2=O)CC1c1ccco1 (stereo not drawn)
    nt	0.15
Fc1ccc2nc(Nc3nc4ccc(F)cc4s3)sc2c1
    0.8	-2.1
Cc1ccccc1/[N+]([O-])=C/c1ccncc1
    0.7	-0.9
COc1ccc(CCN2C(=O)/C(=C/c3ccccc3Cl)SC2=S)cc1OC
    0.25	-0.31
O=C(NC(Cc1ccccc1)C(=O)N1CCCCC1)c1cccs1 (stereo not drawn)
    0.05	-0.055
COc1nc2c(c(=O)n(C)c(=O)n2C)n1Cc1ccc(Cl)c(Cl)c1
    nt	-0.34
CCN(CC)S(=O)(=O)c1cccc(C(=O)N=Nc2c(O)[nH]c3ccccc23)c1
    2.8	nt
CC1Cc2ccccc2N1C(=O)c1cccc(C(=O)N2c3ccccc3CC2C)n1 (stereo not drawn)
    1.4	-0.45
c1ccc(-c2noc(N3CCCC3)n2)cc1
    -0.55	0.47
CN(C)c1nc(Oc2ccc(=O)[nH]n2)nc(N2CCOCC2)n1
    -1.5	0.21
COc1cccc(/C=N/NC(=O)c2cccc(Cl)c2)c1O
    -0.55	-0.02
O=C(Cn1cnc2c(cnn2-c2ccccc2)c1=O)NCc1ccccc1
    -0.4	-0.99
O=C(CCCC(=O)Nc1ccc(F)cc1)Nc1ccc(F)cc1
    0.9	-0.15
CCC(C)(C)c1cc2cc(NS(=O)(=O)c3ccccc3)ccc2[nH]1
    nt	-0.4
O=C(CSc1nnnn1-c1ccccc1)NCCC12CC3CC(CC(C3)C1)C2
    0.1	0.04
COC(=O)c1ccc(S(=O)(=O)N2CCCN(C(=O)OC(C)(C)C)CC2)n1C
    0.65	1.1
Cc1ccn2c(=O)nc(SCc3cccc(C(F)(F)F)c3)nc2c1
    nt	5.5
CCOc1ccc(C2=NN3C(C2)c2cc(Cl)ccc2OC3c2ccc(F)c(F)c2)cc1 (stereo not drawn)
    nt	0.14
COc1ccc(C(=O)N2CCCC2=O)cc1
    nt	0.41
Cc1c(C#N)c2ccccc2n1CC(N)=O
    0.6	0.32
Cc1oc(-c2ccc(Cl)cc2)cc1COC(=O)Nc1ccccc1
    1.7	10
COc1ccc(CN2C(=O)NC(=O)/C(=C\c3cc(OC)c(O)c(OC)c3)C2=O)cc1
    nt	-0.5
COc1ccccc1N1CCN(S(=O)(=O)c2ccc3c(c2)C(C2CCCC2)C(=O)N3)CC1 (stereo not drawn)
    1.1	-1.5
Cn1nc(C(F)(F)F)c(COC(=O)Nc2cccc(Cl)c2)c1Cl
    nt	0.4
CC(=O)Nc1ccc(S(=O)(=O)NC23CC4CC(CC(C4)C2)C3)cc1
    0.3	-0.14
C=CCNC(=O)c1ccc(OCCCC)cc1
    -0.45	-0.58
COC(=O)c1sc(NC(=O)CN2CCOCC2)c(C(=O)OC)c1C
    -0.2	nt
Cc1cc(NC(=O)Cc2nn(C)c(=O)c3ccccc23)no1
    nt	0.39
CCOC(=O)c1cnc2cc(C(C)(C)C)[nH]n2c1=O
    2.2	1.5
CC(=O)Nc1cc(-c2ccc(Br)cc2)nn1Cc1ccc(Cl)cc1
    0.4	0.24
N#C/C(=C\c1ccc(O)cc1)C(N)=S
    -1.6	nt
O=c1cc(CSC2=NCCS2)nc2sccn12
    0	-0.12
CNS(=O)(=O)c1ccc(CCC(=O)N2CCCCC2)cc1
    -1.1	-0.03
CN1C2C=C(N(CCc3ccccc3)C(=O)c3ccc(Cl)cc3)CC1CC2 (stereo not drawn)
    nt	0.68
CC1C(=O)CCN(C(C)C)C1C (stereo not drawn)
    -0.25	-1
O=C(CCC(=O)N1CCC(N(C2CC2)S(=O)(=O)c2cccc(C(F)(F)F)c2)CC1)NCc1ccc(Cl)cc1
    nt	-0.075
O=C(c1ccccc1)c1cccc(NC(=O)c2cccnc2Oc2ccccc2)c1
    0.3	-0.42
CC(C)c1ccc(N(CC(=O)Nc2ccc3c(c2)n(C)c(=O)n3C)S(C)(=O)=O)cc1
    -1.3	nt
O=S(=O)(NC1c2cccc3cccc(c23)C1N1CCN(C(=S)Nc2ccccc2)CC1)c1ccc(Cl)cc1 (stereo not drawn)
    nt	-0.17
CC(C)(COC(=O)Nc1ccc(Cl)cc1)n1cccc1
    0.1	-0.13
Cc1cc(C(=O)Nc2cccc3ncccc23)no1
    0	nt
CSc1n[nH]c(-c2cccs2)n1
    0	0.65
CCCn1nc2ccccc2c1P(=NC(=O)Nc1cccc(Cl)c1)(N1CCOCC1)N1CCOCC1
    -0.45	nt
CC1CC1C(=O)Nc1ccccc1C#N (stereo not drawn)
    0	-0.24
CCOC(=O)c1cn[nH]c1NC(=S)Nc1ccccc1
    0.15	0.83
Cc1cc(NC(=O)CSc2ccccn2)no1
    1.8	-0.91
N=C1SCC(=O)N1c1ccc(Cl)cc1Cl
    nt	0.53
COc1ccc(CNc2ccccc2)cc1Br
    -0.8	-0.29
Cc1nn(C2CCS(=O)(=O)C2)c(Cl)c1/C=C/C(=O)OCCN1C(=O)c2ccccc2C1=O (stereo not drawn)
    0.4	nt
Cc1ccc(-n2c(=S)[nH]c3sc4c(c3c2=O)CCC4)cc1
    nt	-0.035
Cc1nnc(-c2cccc(C(F)(F)F)c2)[nH]c1=O
    0.7	0.015
CCCS(=O)(=O)c1c(S(=O)(=O)CCC)c2ccccn2c1C(=O)c1ccc(Br)cc1
    nt	-0.64
Cc1cccc(N2CCN(C(=O)C3C4C=CC(O4)C3C(=O)O)CC2)c1C (stereo not drawn)
    -0.05	0.035

Some values from the list:
Cc1nnc(-c2cccc(C(F)(F)F)c2)[nH]c1=O in Ba CapD inh = 0.015
CCCS(=O)(=O)c1c(S(=O)(=O)CCC)c2ccccn2c1C(=O)c1ccc(Br)cc1 in Ba CapD inh = -0.64
CN1C2C=C(N(CCc3ccccc3)C(=O)c3ccc(Cl)cc3)CC1CC2 (stereo not drawn) in Ba CapD inh = 0.68
CCOC(=O)c1cn[nH]c1NC(=S)Nc1ccccc1 in Ba CapD inh = 0.83

Remaining list, next part.
Every second line gives: AID504770	Ba CapD inh
O=C(Nc1nc2c(s1)CCCC2)c1ccccc1
    0.05	0.23
CC1(C)NC(=O)N(CC(O)CNC23CC4CC(CC(C4)C2)C3)C1=O (stereo not drawn)
    -0.95	nt
O=C(O)/C=C/c1ccc(/C=C/C(=O)O)cc1
    0.95	0.26
CC1=C(C(=O)OC(C)(C)C)C2(C(=O)Nc3ccccc32)C(C(=O)OC(C)C)=C(N)O1 (stereo not drawn)
    nt	-0.23
COc1cc(C(=O)N2CCN(Cc3ccccc3)CC2)cc(CN2C(=O)c3ccccc3C2=O)c1OC
    2.2	nt
NC(=O)c1ccc(N=Cc2ccc[nH]2)cc1
    0.3	0.15
Cc1ccccc1NC(=S)NN1CCN(C)CC1
    0.65	0.4
COc1ccc(OC)c(C2NC(=O)NC(C)=C2C(=O)OCC(F)(F)C(F)(F)F)c1 (stereo not drawn)
    nt	0.23
O=C(CS(=O)(=O)c1ccc(C(F)(F)F)cn1)N/N=C/c1csc([N+](=O)[O-])c1
    nt	0.035
N#CC1(NC(=O)Cn2cc(Br)ccc2=O)CCCC1
    0.8	nt
O=C(CCSc1nc(-c2ccco2)cc(C(F)(F)F)n1)NCCN1CCOCC1
    -0.5	-0.27
CCc1ccc(-c2nn(-c3ccccc3)cc2/C=C2\SC(N)=NC2=O)cc1
    -3.1	nt
Cc1c(C)c(C)c(S(=O)(=O)NC(C)(C)C)c(C)c1C
    0.6	0.17
Cc1ccc(S(=O)(=O)NC(=O)Nc2cccc(C(F)(F)F)c2)cc1
    -1.4	-0.035
O=C1CCCC2=C1C(c1ccc(Br)cc1)n1nc(-c3ccco3)nc1N2 (stereo not drawn)
    -0.25	-0.6
CCOC(=O)N1CCN(c2ncnc3c2cnn3-c2ccc(Cl)cc2)CC1
    nt	-0.62
O=C(Cc1n[nH]c(=O)c2ccccc12)OCc1cc(=O)n2ccsc2n1
    -0.15	nt
O=C(NCO)c1ccccc1
    -0.7	-0.02
CN(C)/C=N/c1nc2c(s1)CCc1ccccc1-2
    nt	-0.24
COC(=O)CN(c1nc(C)c(Cl)c(OC)n1)S(=O)(=O)c1ccc(C)cc1
    nt	0.33

Some of these compounds in order of heavy-atom count, ascending.
Every second line gives: AID504770	Ba CapD inh
Cc1ccccc1NC(=S)NN1CCN(C)CC1
    0.65	0.4
O=C(Cc1n[nH]c(=O)c2ccccc12)OCc1cc(=O)n2ccsc2n1
    -0.15	nt
O=C(CCSc1nc(-c2ccco2)cc(C(F)(F)F)n1)NCCN1CCOCC1
    -0.5	-0.27

Continuation.
Every second line gives: AID504770	Ba CapD inh
CCOC(=O)C1=C(c2ccccc2)N=C2SCC(=O)N2C1c1ccc2c(c1)OCO2 (stereo not drawn)
    nt	8.3
O=c1oc(-c2ccco2)nc2scc(-c3cccs3)c12
    nt	0.21
CC1SC(c2ccc(Br)cc2)N(c2ccccc2)C1=O (stereo not drawn)
    -0.2	0.41
O=C(CCSc1ccccc1Cl)NC1CCCCCC1
    -0.1	-0.12
CCc1nnc2c(NCCCN3CCN(c4ccccc4)CC3)nc3ccccc3n12
    -1.5	0.76
CCCn1c(SCC(=O)c2ccccc2)nc2ccccc21
    0.25	-0.13
CCOC(=O)c1ccccc1NC(=O)c1ccccc1N(C)S(C)(=O)=O
    -0.75	0.36
CCOCCCn1c(Sc2ncnc3c2oc2ccccc23)nc2ccccc2c1=O
    0	nt
COC(=O)N/N=C(\C)c1ccc(C)c(C)c1
    0.3	nt
NC(=O)N1CCc2ccccc21
    -0.65	0.29
CCc1ccc2c(c1)c1nnc(SCC(=O)NC3CCCCC3C)nc1n2C (stereo not drawn)
    0	nt
COc1ccccc1CNC(=O)c1ccc2c(=O)n(CCc3c[nH]c4ccccc34)c(=S)[nH]c2c1
    nt	0.54
CCn1c(-c2c(Cl)c(C)nn2C)n[nH]c1=S
    -0.65	-0.04
Cc1cccc(NC(=O)Cn2c(=O)n(-c3ccc(F)cc3)c(=O)c3sccc32)c1
    2	-0.28
COc1ccc(Nc2nc(-c3ccc(OC)cc3)no2)cc1
    -0.5	-0.24
Cc1cccc(N2C(=O)/C(=C/c3ccc(O)c(O)c3)SC2=S)c1C
    1.6	-2.9
O=S(=O)(c1ccccc1)N(CC(O)CN1CCCCC1)c1cccc2ccccc12 (stereo not drawn)
    nt	1.2
NC(=O)c1cc2ccccc2nc1C(N)=O
    0	0.99
CC(OC(=O)c1ccc(O)cc1)C(=O)Nc1cc(Cl)cc(Cl)c1 (stereo not drawn)
    0.45	0.29

Bioassay records: PubChem BioAssay, ICCB-Longwood Screening Facility, Harvard Medical School

Hits appear at their usual frequency. About 0.37% of those tested had a hit in this group.
